Source: PubChem BioAssay
VACV mCherry inh – inhibitors of vaccinia virus infection (mCherry reporter signal). Potency, µM (titrated, usually from 36.5 µM), for inactives: at the top dose activity change, negative = inhibition, most hits filed as inhibitors. hit rate 0.63% among 310,000. Vaccinia virus mCherry reporter infection, fluorescence; about a quarter of the inactives have no number. AID 720579; active = well fitted inhibition curve with a large enough effect; inconclusive = small, poorly fitted or top-dose-only effect; inactive = no such curve, though single readings can be large or run the other way; tested in A549 cells; further: nearly all actives have a fitted effect of over 35% in size; inactives centre near -10
VACV Venus inh – inhibitors of vaccinia virus (Venus reporter); Vaccinia virus Venus reporter expression, fluorescence; Potency, µM (doses to about 36.5 µM), without a hit: at the top dose activity change, negative = inhibition, most hits filed as inhibitors; hit rate 0.46% among 330,000; AID 720580; active means well fitted inhibition curve with a large enough effect; inconclusive means small, poorly fitted or top-dose-only effect; inactive means no such curve, though single readings can be large or run the other way; tested in A549 cells; further: nearly all actives have a fitted effect of over 30% in size; inactives centre near -10
The depositor's hits bear a star; i = inactive; ? = inconclusive; / = no result given; [ ] = dose if it differs, or a comment. On the % scale 0 is the no-effect control and ±100 the full control effect; potency means the concentration at half of the fitted maximal effect.

mol	VACV mCherry inh	VACV Venus inh
CCn1cnc2c(cnn2-c2ccccc2)c1=O	-3.1%	6.6%
COc1ccc(NC(=O)c2cccc(S(=O)(=O)N3CCN(c4ccccc4)CC3)c2)c(OC)c1	?	-10.9%
CCOC(=O)N1CCN(c2ccc(C(C)=O)cc2F)CC1C (configuration not stated)	-1.5%	-13.3%
CCCOc1ccc(-c2cc(C(F)(F)F)c(C#N)c(SCCC(=O)O)n2)cc1	i	2.2%
COc1cccc(-n2cnc(=O)c3cccnc32)c1	-7.7%	-8.2%
COCCNC(=O)Cc1ccc(F)cc1	i	0.9%
CC1(C(=O)NCC2CC2)Cc2c(-c3cccc(C(F)(F)F)c3)ccnc2O1 (configuration not stated)	-15.0%	-20.8%
NS(=O)(=O)c1cc(C(=O)N2CCNC(=O)C2)ccc1Cl	-16.1%	-9.3%
Cn1cnc([N+](=O)[O-])c1Sc1nc(N)nc2c1ncn2C1CC(O)C(CO)O1 (configuration not stated)	6.31µM*	?
CCN(CC)CCCNC(=O)c1ccc(-c2nc(CN3CCc4ccccc43)c(C)o2)cc1	-7.2%	0.3%
O=C(CSCC(=O)NCc1ccco1)NCc1ccco1	-0.2%	-20.2%
CCCCN1C(=O)C(CC(=O)NCCCN(C)C)CC(C(=O)N2CCCCCC2)=C1C (configuration not stated)	3.7%	3.2%
COc1ccc(CCNC(=O)Cn2nnc3ccccc3c2=O)cc1	-21.7%	-10.6%
COCCN(C(=O)CNC(=O)c1cccs1)C(C(=O)NC1CCCC1)c1cccs1 (configuration not stated)	-14.5%	-13.2%
O=C(NCCN1C(=O)S/C(=C\c2cccnc2)C1=O)C1CC(=O)N(Cc2ccco2)C1 (configuration not stated)	-3.1%	-11.2%
CCOC(=O)N1CCC(NC(=O)CCc2c(C)nc3nc(C)nn3c2C)CC1	-5.4%	-2.3%

In the list so far, 2 have an aryl thioether with sulfur outside any ring.
mol	VACV mCherry inh	VACV Venus inh
CCCOc1ccc(-c2cc(C(F)(F)F)c(C#N)c(SCCC(=O)O)n2)cc1	i	2.2%
Cn1cnc([N+](=O)[O-])c1Sc1nc(N)nc2c1ncn2C1CC(O)C(CO)O1 (configuration not stated)	6.31µM*	?

(more compounds)
mol	VACV mCherry inh	VACV Venus inh
CC1(C)C(=O)[C@@H]2OC2[C@@]2(C)C1CC(O)[C@]1(C)C2CC[C@@]2(C)C(c3ccoc3)OC(=O)C3OC312 (some centres not stated)	-23.7%	-24.8%
CC(N=Cc1c(O)n(C2CC2)c(=S)[nH]c1=O)c1ccccc1 (configuration not stated)	-12.4%	-12.8%
C1=C(c2ccc(-c3ccccc3)cc2)Nc2ncnn2C1c1ccco1 (configuration not stated)	/	82.1%[activator]
CC(C)C[C@@H]1Cc2[nH]c(=S)[nH]c(=O)c2[C@H](CCc2ccccc2)O1	1.4%	-5.5%
CCOCC(=O)Nc1ccc(Br)c(C)c1	-14.3%	-3.2%
Cc1ccc(OCc2cc(C(=O)NC(C)Cc3cccc(C)n3)no2)cn1 (configuration not stated)	-9.7%	-8.8%
Cc1cccc(C(=O)NNC(=O)CCn2nnc3ccccc32)c1	i	-5.2%
COc1cccc2c1C(=O)c1ccc3ccccc3c1C2=O	/	-16.7%
CCOC(=O)c1cc(=O)c2ccc(OCC(=O)Nc3ccccc3)cc2o1	-7.8%	10.9%
Clc1ccccc1-c1nnn(Cc2ccc(-c3nn[nH]n3)cc2)n1	-19.9%	-3.8%
COc1ccc(Br)cc1/C=c1\sc2nc(-c3ccco3)nn2c1=O	/	-2.1%
CC(C)=CCc1c2c(c(O)c3c(=O)c4c(oc13)-c1cc(O)c(O)cc1OC4C=C(C)C)C=CC(C)(C)O2 (configuration not stated)	11.2µM*	?
COc1ccc(N/N=C(C)/C(=N/O)C(=O)Nc2ccccc2)cc1	?	-9.1%
CCc1cccc(C)c1Nc1nn2c(=O)c3ccccc3nc2s1	-16.2%	-16.0%
NCCCNc1ccc([N+](=O)[O-])cc1C(F)(F)F	-9.7%	-13.6%
COC(=O)c1[nH]c2cc(C)ccc2c1NC(=O)CN1CCOCC1	-28.8%	13.2%
Cc1cc(C)n2c(SCc3cccs3)nnc2n1	i	-0.3%
Cc1cccc(NC(=O)c2ncn3c2C(=O)N(C)CC3)c1	-29.5%	-7.9%
CSc1ccc(OC2(C)CCN(Cc3ccc(OC(F)(F)F)cc3)C2)cc1 (configuration not stated)	-3.6%	-0.9%
CCCNC(=O)c1cc(C2CCCCN2S(C)(=O)=O)on1 (configuration not stated)	3.5%	4.5%
COc1ccc(CN2CC(=O)N(c3cccc(Cl)c3)C2=S)cc1OC	i	-1.7%
Cc1ccc(CSc2nc(-c3ccccc3C)nc3c2Cc2c(CO)cnc(C)c2O3)cc1	?	?
Cc1ccc(Cn2c(C(CO)Nc3nc(-c4ccc(Cl)c([N+](=O)[O-])c4)cs3)nc3ccccc32)cc1 (configuration not stated)	-5.3%	-22.0%
Cc1cccc(NC2SC(=O)NC2=O)c1 (configuration not stated)	i	0.7%
COC1OC(CO)C(N(C)C(C)=O)C1O (configuration not stated)	7.8%	-1.0%
Cc1c(Cl)cccc1NC(=O)C(=O)NCCc1csc(-c2cccc(F)c2)n1	-10.4%	-2.0%
CC(=O)Nc1cc(C(=O)NCc2ccco2)ccc1Sc1ccc(Cl)cc1	-10.7%	-4.0%
CC(C(=O)Nc1ccc(C#N)cc1)N(C)CC(=O)Nc1ccccc1Br (configuration not stated)	i	-1.0%
CCN(CC)CCCN1C(=O)C(O)=C(C(=O)c2ccc(C)o2)C1c1ccc(C)o1 (configuration not stated)	i	-9.2%
COc1ccc2[nH]c3c(c2c1)CCN1C(=O)C(CC(=O)NCc2ccco2)C[C@H](C(=O)N(C(C)C)C(C)C)[C@@]31C (some centres not stated)	-18.1%	?
C=C(C)CSc1nc(N)c(C#N)c(-c2ccc(C)cc2)c1C#N	-6.8%	-26.3%
C[C@@H]1CN(S(=O)C(C)(C)C)[C@@H](CCO)/C1=C\c1ccccc1 (some centres not stated)	-21.2%	-9.1%
CC(C)(CNC(=O)c1cc(Cl)c(O)c(Cl)c1)N1CCCCC1	-0.9%	3.5%
COC(=O)c1ccccc1NC(=O)Cc1nc(-c2ccccc2)sc1-c1ccc(C)cc1	-7.7%	-5.7%
Oc1c(Cl)cc(Cl)cc1/C=N/Nc1ncc(Br)cn1	1.58µM*	?
COc1ccc(C(=O)NC2=Nc3ccccc3N=C(C)C2c2ccccc2)cc1 (configuration not stated)	-1.8%[7.34 µM]	-5.0%[7.34 µM]
COc1ccc(-n2nnnc2SCc2nc3ccccc3s2)cc1	/	-11.6%
CC(C)(C)NC(=O)CN(C(=O)c1ccc(CN2CCOCC2)o1)c1ccc2c(c1)OCCO2	-14.8%	-13.5%
CC1CN(C(=S)NC(=O)c2ccco2)CC(C)O1 (configuration not stated)	-7.1%	-0.2%
C=CCOc1c(CNc2ncn[nH]2)cccc1OC	/	-3.3%
O=C(Nc1ccccc1OC(F)F)c1cc2c(s1)CCC2	-21.7%	-13.6%
Cc1ccc(OCC(=O)N(Cc2ccco2)C2CCS(=O)(=O)C2)cc1C (configuration not stated)	i	-16.3%
O=C(c1cc(-c2ccc(O)cc2)on1)N1CCCC1	-29.6%	-12.8%
O=C(Cn1cnc2ccccc21)N1CCc2ccccc21	i	-21.0%
COc1ccc(-c2cnc(C)o2)cc1S(=O)(=O)Nc1ccc(C)c(N(C)C)c1	-15.2%	-6.1%
Cc1ccccc1C(=O)Nc1ccc2nc(N3CCCCC3)cc(C)c2c1	-7.8%	-16.5%
O=C(CN1C(=O)NC(c2ccccc2)(c2ccccc2)C1=O)NCCNCCO	i	-14.1%
CCOC(=O)c1c(-c2cccc(C)c2)csc1NC(=O)C1CC=CCC1C(=O)O (configuration not stated)	/	-3.3%
Cc1ccc(N(CC(=O)NC(C)C)C(=O)CCC(=O)Nc2ccccn2)cc1	-13.9%	-2.2%
CSC1=NP(=S)(SC)N(C)c2nc3n(c21)CCC3 (configuration not stated)	i	-7.0%
Cc1cc(NC(=O)c2ccccc2Cl)ccc1NC(=O)c1ccccc1	-12.9%	-1.6%
O=C(NCCCn1ccnc1)C(=O)c1cn(CC(=O)N2CCCCCC2)c2ccccc12	-5.1%	-3.2%
N#Cc1ccc(-c2csc(NC(=O)c3ccc(N4C(=O)CCC4=O)cc3)n2)cc1	25.6%	-3.2%
O=C(OCC1CCCO1)c1ccc2c(c1)N(Cc1c(F)cccc1Cl)C(=O)c1ccccc1S2(=O)=O (configuration not stated)	-0.6%	3.0%
COc1cc(C)nc(SCC(N)=O)n1	0.0%	-13.7%
CCC/C(=N\NC(=O)c1cccc(C)c1)c1ccccc1	-11.7%	-7.4%

Continued.
mol	VACV mCherry inh	VACV Venus inh
Cn1c(=O)c(=O)n(C)c2cc(S(=O)(=O)N3CCN(c4ccccc4)CC3)ccc21	-24.9%	-23.6%
Cc1ccc(CSc2nnc(-c3ccc(NC(=O)CCc4ccccc4)cc3)n2C)cc1	-10.1%	-9.1%
COC(=O)c1cc(N2C(=O)C3C4C=CC(CC4)C3C2=O)ccc1Cl (configuration not stated)	-9.2%	-12.5%
Cc1nnnn1-c1ccc(CC(=O)O)cc1	i	-2.7%
Cc1ccc(Nc2ncccc2C(N)=O)cc1[N+](=O)[O-]	-3.5%	-10.3%
COC(=O)c1nc(NC(=O)C(C)C)n[nH]1	i	0.5%
CC(C)NC(=S)N/N=C/c1sc(N2CCCCC2)nc1-c1cccs1	-13.0%	-10.6%
COc1ccc(C2(CNC(=O)c3ccccc3[N+](=O)[O-])CCOCC2)cc1	-2.2%	2.6%
COc1ccc2oc(C(=O)N(CC(C)C)C3CCS(=O)(=O)C3)c(C)c2c1 (configuration not stated)	-4.4%	-11.2%
COc1cc(C(=O)N[C@@H](Cc2c[nH]c3ccccc23)C(=O)O)cc(OC)c1OC	-16.5%	-6.7%
COC(=O)/C(C#N)=C/c1ccc(N2CCOCC2)c([N+](=O)[O-])c1	i	-5.9%
CC(C)CCCN1C(Nc2ccccc2)=NC[C@@H]1CC(C)C	-3.7%	-10.0%
Cn1cc(CN2CCCC(C(=O)c3nccn3C)C2)c(-c2cccc(Cl)c2)n1 (configuration not stated)	-17.1%	-14.5%
COc1cc(C2C3=C(CC(C)(C)CC3=O)OC3=C2C(=O)CC(C)(C)C3)cc([N+](=O)[O-])c1O	-39.9%	-16.1%
C=CCNC(=O)/C(C#N)=C/c1c(N2CCN(c3cccc(Cl)c3)CC2)nc2c(C)cccn2c1=O	-6.5%	-3.2%
COc1ccc(-c2nc3ccccc3o2)cc1NC(=O)c1ccc(Br)o1	/	-1.0%
CCOc1ccc(C(=O)NCC(=O)OC2CCOC2=O)cc1OCC (configuration not stated)	-13.5%	-7.8%
Cc1cc(C)c2cccnc2c1O	-17.4%	-8.5%
O=C(N/N=C/c1ccc(O)cc1)c1ccc(NC(=O)c2ccccc2Br)cc1	?	?
O=C(COC(=O)CNC(=O)c1ccccc1Cl)Nc1ncc(C(F)(F)F)cc1Cl	-8.9%	-8.2%
CCOC(=O)c1ccc(-n2c(C)nc3ccccc3c2=O)cc1	/	-14.5%
CCN=C1SC(CC(=O)Nc2ccc(N3CCOCC3)cc2)C(=O)N1CC (configuration not stated)	/	-7.8%
CC(=O)NC1C(Oc2ccccc2C)OC2COC(c3ccco3)OC2C1O (configuration not stated)	-12.9%	-5.0%
C[C@H]1COC(=O)[C@H](CC(=O)OC(C)(C)C)C/C=C\C[C@@H](CC(=O)NCCO)C(=O)N1	i	-22.0%
O=C(O)C1CCC(CNCc2ccccc2Cl)CC1 (configuration not stated)	-9.7%	-4.1%
O=C(CN1CCN(c2ccccn2)CC1)Nc1cccc(Cl)c1Cl	i	-5.5%
COc1cc(C(=O)Nc2sc3c(c2C(=O)O)CCC(C)C3)cc(OC)c1OC (configuration not stated)	i	-15.7%
O=C(CSc1nc2ccsc2c(=O)n1Cc1ccccc1Cl)NCc1ccc(Cl)cc1	-6.4%	-10.2%
CCOc1ccc(OCCCC(=O)Nc2nc3ccccc3[nH]2)cc1	-12.1%	-6.0%
CCOc1ccccc1-n1c(O)c(C=Nc2ccc(N(CC)CC)cc2)c(=O)[nH]c1=O	/	-24.5%
CCOC(=O)C(Cc1c[nH]c2ccccc12)NC(=O)COc1ccc(Cl)cc1 (configuration not stated)	-11.3%[7.34 µM]	-8.8%[7.34 µM]
CCC(=O)Nc1ccc(/C(C)=N/NC(=O)c2c(Br)c(C)nn2C)cc1	-1.1%	-15.1%
Cc1ccc(C(=O)NCC(=O)OCCOc2cccc(Cl)c2)cc1	-18.6%	-8.7%
CC(C)CCNC(=O)C1CCC(CNc2c(N3CCCC3)c(=O)c2=O)CC1 (configuration not stated)	i	-0.6%
O=C(CSCC(=O)NN=Cc1ccccc1O)NN=Cc1ccccc1O	?	?
Cc1c(NS(=O)(=O)c2cc(C(=O)NCc3cccnc3)cc(Cl)c2Cl)c(=O)n(-c2ccccc2)n1C	-4.2%	-14.5%
O=C(COc1ccccc1[N+](=O)[O-])Nc1ccc(N2CCN(C(=O)c3cccs3)CC2)cc1	-5.8%	-22.7%
